StopGo reporter – FMDV 2A StopGo reporter, luciferase signal. human cells with a luciferase reporter of 2A StopGo recoding; control for the full effect not named in the record. Potency, µM (top dose mostly 57.9 µM), for inactives: at the highest dose signal change, negative = less light. 410,000 tested, 1.2% active; active = well fitted falling curve with a large enough effect; inconclusive = small, poorly fitted or top-dose-only effect; inactive = no such curve, though single readings can be large or run the other way; tested in HEK293T cells; note: % is set by controls: 0 for no effect and ±100 for the full control effect; nearly all actives have a fitted effect of over 45% in size; luciferase light after 4 h
Cruzain inh Det – inhibitors of Trypanosoma cruzi cruzain with detergent. P25779. purified cruzain, Z-FR-AMC fluorescence, 0.01% Triton. Potency, µM, without a hit: max response, negative = inhibition, actives largely listed as inhibitors. 200,000 tested, 0.43% active. AID 1478;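 note: plate controls were neutral wells for no effect and buffer without enzyme for full effect; nearly all actives have a fitted effect of over 40% in size; top concentration of the series not given in the record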
Target sequence (P25779 123-467 limits assumed): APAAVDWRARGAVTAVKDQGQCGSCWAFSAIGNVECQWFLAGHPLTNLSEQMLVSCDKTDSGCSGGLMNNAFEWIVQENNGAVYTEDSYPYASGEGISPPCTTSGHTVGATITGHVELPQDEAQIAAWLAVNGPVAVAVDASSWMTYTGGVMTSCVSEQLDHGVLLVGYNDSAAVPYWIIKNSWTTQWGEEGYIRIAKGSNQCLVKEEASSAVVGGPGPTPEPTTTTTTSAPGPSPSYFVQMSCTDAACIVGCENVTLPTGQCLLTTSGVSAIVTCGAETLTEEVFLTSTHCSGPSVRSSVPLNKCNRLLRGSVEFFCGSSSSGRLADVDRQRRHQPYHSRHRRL
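15 min RT preincubation of 1.5 nM cruzain with compound, then 2 uM Z-FR-AMC added; kinetic AMC fluorescence, 60 s delta. Triton X-100 0.01%, pH 5.5.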
NS1 function inh – inhibitors of influenza NS1 protein function; S. cerevisiae slowed by influenza A NS1, growth recovery by OD600; Potency, µM (doses to about 46.1 µM), inactives show at the highest dose activity, positive = more growth; 270,000 tested, 0.4% active; AID 2326; active means well fitted rising curve with a large enough effect; inconclusive means small, poorly fitted or top-dose-only effect; inactive means no such curve, though single readings can be large or run the other way; note: nearly all actives have a fitted effect of over 50% in size
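A cell-based growth assay was used: compounds that relieve NS1-induced slow growth of budding yeast raise OD600. Assay medium was yeast nitrogen base with ammonium sulphate and -URA supplement, pH 6.0, with 2% galactose.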
MARV entry inh – Marburg virus entry inhibition; AID 540276; Potency, µM (highest dose often 37.8 µM), for the others: at the highest dose activity change, negative = inhibition, most hits filed as inhibitors; 300,000 tested, 1.8% active; Marburg virus pseudotyped entry inhibition, cell reporter; control for the full effect not named in the record; about a third of the inactives were read at about 46 µM; active = well fitted inhibition curve with a large enough effect; inconclusive = small, poorly fitted or top-dose-only effect, or effect the other way; inactive = flat fitted curve, though single readings scatter; tested in HEK293 cells; about a fifth of its hits are not listed in these tables; note: % is set by controls: 0 for no effect and ±100 for the full control effect; luciferase read-out
RE007 growth inh – less growth of the S. pombe RE007 Vpr strain. 360,000 tested, 0.21% active. Potency, µM (highest dose often 92.2 µM), without a hit: at the top dose activity change, negative = less growth. S. pombe RE007 Vpr strain, BacTiter-Glo ATP luminescence, 24 h; control for the full effect not named in the record; active = well fitted falling curve with a large enough effect; inconclusive = small, poorly fitted or top-dose-only effect; inactive = no such curve, though single readings can be large or run the other way;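 note: % is set by controls: 0 for no effect and ±100 for the full control effect; nearly all actives have a fitted effect of over 50% in size; the assay follows cell death caused by Vpr and the record does not say whether a fall means rescue or toxicity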
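Fission yeast RE007 carrying one integrated HIV-1 vpr copy, seeded at OD 0.01 in PMG+AL medium with 23 nL pinned compound. Grown 24 h at 30 degrees; viability read by BacTiter-Glo luminescence after 5 min.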
Lassa entry inh – blocks Lassa virus binding to or entry into cells; 300,000 tested, 1.2% active; AID 540256; Lassa virus pseudotype entry inhibition, cell reporter; control for the full effect not named in the record; Potency, µM (series often up to 37.9 µM), for the others: top-dose activity change, negative = inhibition, usual class: inhibitors; active means well fitted inhibition curve with a large enough effect; inconclusive means small, poorly fitted or top-dose-only effect, or effect the other way; inactive means flat fitted curve, though single readings scatter; tested in HEK293 cells; note: % is set by controls: 0 for no effect and ±100 for the full control effect; nearly all actives have a fitted effect of over 50% in size; luciferase read-out
Cruzain noTriton – cruzain (T. cruzi) inhibition without detergent; AID 1476; Potency, µM, for the others: max response, negative = inhibition, hits mostly inhibitors; purified cruzain, Z-FR-AMC fluorescence, no detergent; 200,000 tested, 2.3% active; P25779;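 note: plate controls were enzyme without inhibitor for no effect and buffer without enzyme for full effect; nearly all actives have a fitted effect of over 40% in size; top concentration of the series not given in the record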
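Detergent-free condition (0.00005% Triton X-100) in acetate buffer pH 5.5 with DTT. 1.5 nM enzyme and compound were pre-mixed 15 min, then 2 uM Z-FR-AMC substrate added; reaction progress from fluorescence change between first and third reads (60 s).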
SARS PLpro yeast – blocks SARS-CoV papain-like protease in a yeast assay; S. cerevisiae expressing SARS-CoV PLpro, growth rescue; control for the full effect not named in the record; Potency, µM (top dose mostly 32.9 µM), without a hit: top-dose activity, positive = growth rescue; 330,000 tested, 0.19% active; AID 485353; active means well fitted rising curve with a large enough effect; inconclusive means small, poorly fitted or top-dose-only effect; inactive means no such curve, though single readings can be large or run the other way; note: 0% is about no effect; nearly all actives have a fitted effect of over 55% in size; growth read by luminescence after 48 h
An asterisk follows results filed as active; ? = inconclusive; nt = not tested or not shown; & = joins results of further samples; [ ] = another dose, or the depositor's remark. Unless noted, calls come from the whole dose curve; as a rule, active = well fitted curve in the direction sought with a large enough effect; inconclusive = small, poorly fitted or top-dose-only effect, or another doubt; inactive = no such curve, though single readings can be large; an effect the other way counts as inactive or inconclusive. Potency is the fitted concentration of half-maximal effect.

SMILES	StopGo reporter	Cruzain inh Det	NS1 function inh	MARV entry inh	RE007 growth inh	Lassa entry inh	Cruzain noTriton	SARS PLpro yeast
COc1cccc(NC(=O)Cn2nc(N3CCN(c4ccccc4)CC3)ccc2=O)c1	-6.5%	-5.7%	nt	nt	nt	7.8%[46.1 µM]	24.5%	nt
Clc1ccc(C2=CSC3=NCCN23)cc1Cl	-17.8%	-2.8%	-5.3%	-36.6%	17.5%	13.3%	-13.6%	-5.5%
CC(=O)NC1=NN(C(C)=O)C(C)(c2ccccn2)S1 (stereo not drawn)	-12.1%	nt	4.0%	?	-10.9%	17.6%[46.1 µM]	nt	-0.9%
Cc1nnc2c3ccccc3c(-c3ccccc3)nn12	nt	nt	-31.0%	?	6.2%	?	nt	nt
Cc1nnc(NC(=O)CSc2nccn2C)s1	-6.9%	-1.5%	-4.0%[9.22 µM]	11.5%[46.1 µM]	-8.9%	0.4%	11.4%	3.5%
N#CCn1cnc2c(oc3ccccc32)c1=O	5.1%	nt	8.8%	nt	-2.5%	nt	nt	-1.8%
CCN1/C(=C/c2cc[n+](C)cc2)C=Cc2cc(C)ccc21	5.01µM*	-4.0%	15.5%	?	-28.4%	?	-7.8%	6.5%
Cc1ccc(-n2nnnc2-c2cccs2)cc1[N+](=O)[O-]	7.6%	nt	nt	6.5%	11.6%	11.9%	nt	nt
COc1ccc(NC(=O)CN2CCN(CC(=O)Nc3ccc(F)cc3)CC2)cc1Cl	-14.3%	nt	-4.3%	nt	1.1%	nt	nt	-1.4%
O=C1N(c2ccccc2)C(c2ccccc2)N2CCCN12 (stereo not drawn)	-12.9%	nt	5.6%	9.7%	-11.4%	nt	nt	0.9%
Nc1c(C(=O)NCC2CCCO2)sc(=S)n1-c1ccccc1 (stereo not drawn)	11.5%	-4.7%	-7.6%	-24.6%	23.8%	-24.6%	3.6%	13.6%
O=C(O)c1ccc(N2C(=O)CSC2=S)cc1	0.0%	nt	nt	-3.5%[46.1 µM]	2.4%	-10.4%[46.1 µM]	nt	nt
C/C(=N\NC(=O)C1COc2ccccc2O1)c1ccccn1 (stereo not drawn)	-3.4%	0.7%	-41.5%	?	?	11.2µM*	-12.4%	29.9%
Cn1c(O)c(C(=NCCN2CCCCC2)c2ccccc2Cl)c(=O)n(C)c1=O	-13.3%	0.5%	-5.4%	-1.4%	-4.5%	-3.8%	-5.4%	9.7%
CC(=O)c1cc(-c2ccccc2)n(CCC(=O)NC(C)(C)C)c1C	-1.7%	nt	nt	-2.3%[46.1 µM]	-7.3%	-16.2%[46.1 µM]	nt	1.2%
CCNC(=O)Nc1nc2ccccc2s1	60.3%[activator]	nt	nt	?	12.5%	-14.3%[46.1 µM]	nt	-2.4%
O=C(Cn1nc(-c2ccccc2)nc(Cc2ccccc2)c1=O)Nc1ccc(Cl)cc1	-3.3%	1.2%	nt	nt	nt	1.9%[46.1 µM]	?	nt
NS(=O)(=O)c1ccc(CCNC(=S)NC2CCCCC2)cc1	-21.1%	nt	-4.9%	-0.3%[46.1 µM]	-0.5%	-6.5%	nt	-0.4%
CCOCCCNC(=O)/C(C#N)=C/c1ccc(C)o1	-5.1%	nt	6.9%	0.5%[46.1 µM]	3.2%	18.9%[46.1 µM]	nt	-3.2%
CCN(C(=O)c1cccn(Cc2cccc(Cl)c2)c1=O)c1ccccc1	-24.3%	-0.9%	nt	nt	nt	10.7%[46.1 µM]	3.5%	nt
O=C(NCc1ccc(Cl)cc1)C1CCC(=O)N(C2CCCCCC2)C1 (stereo not drawn)	?	nt	-0.7%	4.0%	-15.4%	-7.0%	nt	1.2%
CC(NC(=O)c1noc2c1CCCCC2)c1ccccc1 (stereo not drawn)	27.1%	-0.4%	-13.9%	29.0%	-17.5%	11.8%	-2.8%	-1.7%
O=C(Nc1ccc(N2CCOCC2)cc1)Nc1ccc(Cl)c(Cl)c1	-48.8%	-16.3%	-9.4%	?	6.1%	?	-12.0%	-0.1%
COc1cccc(N2CCN(C(=O)c3ccc(=O)oc3)CC2C)c1 (stereo not drawn)	-1.9%	-11.2%	17.1%	12.2%	-17.7%	2.3%	-23.7%	7.2%
Cc1cccn2c(=O)nc(SCC(=O)NCc3ccccc3)nc12	-1.2%	nt	nt	0.1%[46.1 µM]	-14.6%	-7.8%	nt	-1.9%
COc1ccc(NC(=O)c2ccc(-c3cccc(Cl)c3C)o2)cc1	7.3%	-8.3%	nt	nt	nt	1.2%[46.1 µM]	0.3%	nt
CC1(C)CC2CC(C)(CN2C(=O)NC(=O)c2ccccc2)C1 (stereo not drawn)	8.6%	-2.0%	-7.0%	5.4%	-0.1%	-1.9%	0.5%	3.2%
COc1ccc(NC(=O)C2CCN(C(=O)C3CC(=O)N(c4ccc(C)cc4)C3)CC2)cc1 (stereo not drawn)	2.6%	nt	-4.4%	1.6%[46.1 µM]	0.5%	19.7%	nt	10.9%
COc1cccc(Cn2cc(/C=N/NC(=O)c3cc(O)cc(O)c3)c3ccccc32)c1	-23.0%	nt	25.5%	-22.1%	38.5%	?	nt	1.6%
COCCN1C(=O)N[C@@H](c2ccccc2)C(C(C)=O)=C1C	-2.7%	-0.5%&-3.8%	-6.3%	-8.1%	-3.1%	-5.7%	-1.1%&-8.4%	-0.5%
COc1ccc(NC(=O)CN2C(=O)CSc3ccc(S(=O)(=O)N4CCCC4)cc32)cc1OC	-10.2%&0.0%	-1.5%	-6.5%	nt	-7.9%	0.7%[46.1 µM]	2.0%	-2.0%
Cc1ccc(NC(=O)COc2ccc(Br)cc2C)cc1	47.7%[activator]	-4.5%	-19.4%	-1.5%	-17.6%	-10.4%	-5.9%	-44.7%
CCn1nc(C)cc1-c1n[nH]c(=S)n1N	-13.9%	-1.2%	-2.7%	7.3%	-8.2%	7.6%	-3.0%	-7.1%
CCCCC(=O)NC1=NC(=O)C(C)(C)S1	0.5%	-2.9%	9.2%	3.9%	5.0%	2.6%	2.5%	-0.9%
CC(OC(=O)C1=COCCO1)C(=O)NC(C)c1ccc(Cl)cc1Cl (stereo not drawn)	-4.7%	nt	nt	6.8%	12.4%	-0.3%	nt	6.3%
CCN(C(=O)COc1ccccc1[N+](=O)[O-])C1CCS(=O)(=O)C1 (stereo not drawn)	-6.4%	-1.4%	-10.6%	?	-8.5%	0.7%	-16.4%	-23.5%
Cc1nc(C)c(C(=O)Nc2ccc(Oc3ccccc3)cc2)o1	-29.8%	-9.3%	-3.3%	-15.3%	14.8%	?	-2.2%	-13.7%
CC(C)Sc1nc2ccccc2n2cnnc12	10.8%	nt	-21.6%	?	4.6%	-16.0%[46.1 µM]	nt	-6.9%
Cc1ccc(C(=O)NCc2ccc3c(c2)CCN3C(=O)c2ccc(C)cc2)cc1	-15.3%	-1.3%	nt	nt	nt	-23.6%[46.1 µM]	-5.0%	nt
COc1ccccc1C(=O)O/N=C(\c1ccccc1)c1ccncc1	-20.2%	nt	nt	-1.1%[46.1 µM]	-5.1%	-0.9%[46.1 µM]	nt	-9.8%
Cc1ccc(C(=O)Nc2nc(=O)n(C(=O)c3ccccc3C)s2)cc1	32.0%[activator]	-4.5%	-1.2%	?	0.3%	-2.3%	2.6%	8.2%
COC(=O)[C@H](Cc1ccccc1)NC(=O)N1Cc2ccccc2C[C@H]1C(=O)OC	-1.0%	nt	10.1%	nt	-3.5%	nt	nt	0.5%
O=C(CCCOc1ccccc1)Nc1ccc(Cl)c(S(=O)(=O)N2CCOCC2)c1	28.2µM*	nt	nt	?	0.4%	17.8µM*	nt	-0.5%
Cc1cc(=O)[nH]c2c1cnn2C(C)c1ccccc1 (stereo not drawn)	-27.9%	nt	2.2%	nt	7.5%	nt	nt	-0.4%
CC1(C)N=C(N)NC(Nc2ccccc2Cl)=N1	-18.7%	nt	nt	14.6%[46.1 µM]	24.5%	5.5%	nt	nt
CCOc1ccc(CN(CCc2ccc3c(c2)OCO3)Cc2cccc(C)c2)cc1	?	-2.2%	nt	-17.0%[46.1 µM]	nt	2.8%[46.1 µM]	-8.6%	nt
O=C(Nc1ccccc1Br)C1CC(=O)N(c2ccc3c(c2)OCCO3)C1 (stereo not drawn)	16.0%	nt	nt	-1.1%	1.1%	-7.3%	nt	2.9%
COc1ccc(OCC(=O)Nc2cccc(NC(=O)COc3ccc(OC)cc3)n2)cc1	55.8%[activator]	-0.4%	11.5%	-16.8%	-3.9%	18.3%[14.3 µM]	-5.2%	-1.1%
Cc1ccc(C(=O)N2CCN(CCNC(=O)C(=O)NCc3ccc(Cl)cc3)CC2)cc1	-11.1%	nt	-7.6%	nt	10.9%	nt	nt	-3.0%
C=CCn1c(=O)/c(=C\c2ccccn2)s/c1=C(/C#N)C(=O)NCC1CCCO1 (stereo not drawn)	-0.3%	nt	4.8%	-10.5%[46.1 µM]	3.8%	?	nt	2.3%
O=C(C(Cl)Cl)N1CCN(Cc2ccc3c(c2)OCO3)CC1	-7.3%	nt	9.0%	nt	1.6%	nt	nt	0.9%
Nc1nn(S(=O)(=O)c2ccccc2)cc1-c1ccc([N+](=O)[O-])cc1	?	-14.6%	3.3%	?	nt	-14.7%	-3.6%	-1.7%
OCCN(CCO)CC(O)COc1ccc2c(c1)OCO2 (stereo not drawn)	2.7%	4.0%	3.0%	?	4.3%	20.9%	-0.7%	-9.4%
COc1ccccc1CNC(=O)N1CCN(c2ccccc2C)CC1	19.4%	nt	-12.4%	-10.2%[46.1 µM]	21.3%	-3.1%[46.1 µM]	nt	-3.6%
O=C(NC1CCCC1)C(c1ccc(F)cc1)N(C(=O)Cc1cccs1)c1ccc2c(c1)OCCO2 (stereo not drawn)	5.9%	4.1%	-1.3%	-0.6%	-16.6%	17.9%	-8.6%	5.5%
CN(C)c1ccc(NC(=O)c2ccc3nsnc3c2)cc1	22.7%	-1.4%	?	?	-16.5%	?	-12.0%	1.8%
O=C(CSc1nnc2ncccn12)N1CCCCCC1	21.4%	-2.7%	1.8%	-1.2%	0.6%	0.2%	0.1%	-3.8%

Random draw from the library. About 4.6% of those tested had a hit in this group.
